# FGF22 binding: binders of human FGF22 protein, primary screen, FGF22 synaptogenesis inhibitor project, biophysical, thermal shift, single point; 340,000 compounds, 1.5% hits; Fibroblast growth factor 22 (Homo sapiens), Q9HCT0; recombinant FGF22 thermal shift, SYPRO orange fluorescence; percent of sucrose octasulfate shift, DMSO zero; calls only at 9.99 µM;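 active = melting point raised past a set limit in the mean and every replicate; inconclusive = no clear call; three in four hits are not shown here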
# Target sequence (Q9HCT0 whole entry, looked up): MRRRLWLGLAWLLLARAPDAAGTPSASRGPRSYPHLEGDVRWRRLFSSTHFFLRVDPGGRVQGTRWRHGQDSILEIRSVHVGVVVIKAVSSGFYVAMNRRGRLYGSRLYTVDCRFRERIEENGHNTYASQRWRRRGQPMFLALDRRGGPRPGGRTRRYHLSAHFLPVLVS
# Ecoli growth: E. coli growth inhibition, primary screen, OD600. Escherichia coli growth, 23 h; hits give low values. OD600 absorbance (no concentration beside the values). 330,000 compounds, 0.21% hits;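 active = OD600 absorbance below the run mean of sample wells minus 3.6 SD, in any replicate, cut at about 0.56 in these data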;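 note: stock transfer was 300 nL into about 60 µL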
# ALR inh: inhibitors of human ALR sulfhydryl oxidase, primary screen, biochemical, H2O2 detection, HRP-luminol luminescence, single point; AID 485317, 2010; 290,000 compounds, 3.8% hits; purified ALR, DTT oxidation; FAD-linked sulfhydryl oxidase ALR (Homo sapiens), P55789; inhibition, % (test concentration not listed);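 active = mean and each replicate at 75% or more; inconclusive = only one of the two met; inactive = neither met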;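 note: stock transfer was 7.5 nL into about 7.5 µL; 0% = neutral wells and 100% = wells with inactivated enzyme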
# Target sequence (P55789 whole entry, looked up): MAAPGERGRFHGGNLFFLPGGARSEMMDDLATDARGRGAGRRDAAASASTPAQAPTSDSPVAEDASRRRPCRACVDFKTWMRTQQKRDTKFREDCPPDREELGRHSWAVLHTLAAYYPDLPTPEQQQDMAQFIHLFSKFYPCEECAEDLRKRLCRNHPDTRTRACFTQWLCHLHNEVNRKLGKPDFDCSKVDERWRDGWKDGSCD
# HNF4A DNA FP: change in binding of human HNF4A to DNA, primary screen, biochemical, fluorescence polarization, FITC-DNA; Hepatocyte nuclear factor 4-alpha (Homo sapiens), P41235; 1 h; activity change, % at 10 µM; 360,000 compounds, 0.3% hits; AID 1224865, 2016; in the data active = activity change above about 30%, passing the limit was not always enough;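 note: controls were the assay level and a saturating level of protein; the project sought stronger binding though the title names inhibitors; some compounds called inactive have numbers as strong as hits; positive values seem to mean higher polarization but the record does not say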
# UCH37 inh: inhibitors of human UCH37 deubiquitinase, primary screen, biochemical, Ub-AMC cleavage, fluorescence; Ubiquitin carboxyl-terminal hydrolase isozyme L5 (Homo sapiens), Q9Y5K5; purified proteasome/UCH37; inhibition, % (test concentration not listed); 330,000 compounds, 0.33% hits; AID 588478, 2011;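 active = mean of two replicates above 20%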;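 note: 0% = compound-free wells with enzyme and 100% = wells lacking proteasome; stock transfer was 100 nL into about 20 µL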
# Target sequence (Q9Y5K5 whole entry, looked up): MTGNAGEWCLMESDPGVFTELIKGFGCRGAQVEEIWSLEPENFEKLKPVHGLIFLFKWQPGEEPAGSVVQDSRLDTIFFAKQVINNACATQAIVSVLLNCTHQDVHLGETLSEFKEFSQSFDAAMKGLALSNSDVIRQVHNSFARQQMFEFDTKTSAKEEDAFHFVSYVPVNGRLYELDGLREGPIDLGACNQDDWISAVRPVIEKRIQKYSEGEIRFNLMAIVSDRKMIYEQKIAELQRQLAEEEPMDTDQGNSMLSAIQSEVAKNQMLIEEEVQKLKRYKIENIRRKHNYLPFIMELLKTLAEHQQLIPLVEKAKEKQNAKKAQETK
#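 Material: human UCH37 enzyme supplied as purified proteasome complex. Measure: % inhibition of Ub-AMC cleavage fluorescence. Medium: pH 7.4 Tris-HCl (50 mM) with ovalbumin, ATP-MgCl2, DTT. Times: 30 min preincubation with enzyme, 25 min cleavage at room temperature. Detection: AMC fluorescence intensity at 355/460 nm.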
# rRNA inh HTS: reduced GFP signal of wild-type E. coli, primary screen, bacterial rRNA inhibitor project, GFP/RFP fluorescence, OD600, single point | 350,000 compounds, 1.6% hits | AID 720706, 2013 | E. coli WT GFP vs humanized-ribosome RFP mutants, 24 h; hits give low values; DMSO median 0, no signal -100 | GFP signal change (wild-type ribosome), % (test concentration not listed);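 active = significant combined selectivity score with lowered wild-type GFP, culture density cut under 30%, mutant RFP and density less affected; inactive = any of these conditions unmet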; note: one replicate is shown; some compounds called inactive have numbers as strong as hits
# Beta2AR agonist: beta2AR agonists driving receptor internalization, primary screen, cell-based, FAP fluorogen, flow cytometry; Am2.2-beta2AR cells; reference of the scale not given here; response, % (test concentration not listed); 340,000 compounds, 0.43% hits;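 active = response above a set limit, near 3 SD of response in nonfluorescent compounds, cut at about 42% in these data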;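 note: stock transfer was 100 nL into about 11 µL; a reference agonist was the positive control; negative values mostly stem from fluorescent compounds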
# rRNA inh HTS OD600: second read-out of rRNA inh HTS, no call of its own (marks repeat the call); OD600 change, %; measured here: OD600 growth;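 optical density of the mix in the first replicate; 0 = DMSO median and -100 = no signal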
# rRNA inh HTS RFP: recorded beside rRNA inh HTS, whose call it bears; RFP signal change, %; measured here: RFP humanized mutant strains;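 first replicate; 0 = DMSO median and -100 = no signal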
# The depositor's hits bear a star; i = inactive; ? = inconclusive; / = no result given.
SMILES,FGF22 binding,Ecoli growth,ALR inh,HNF4A DNA FP,UCH37 inh,rRNA inh HTS,rRNA inh HTS OD600,rRNA inh HTS RFP,Beta2AR agonist
N#Cc1ccsc1NC(=O)CN1CCCCCC1,/,0.67,3,-2.3,1.5,/,/,/,-4
Cc1nnc(SCC(=O)Nc2nnc(SCc3cccc(Br)c3)s2)s1,/,0.63,-7,0.7,4.1,/,/,/,-5
N#Cc1ccc(NC(=O)CCc2ccc(S(=O)(=O)N3CCOCC3)cc2)cc1,/,0.72,1,2.6,-0.5,/,/,/,0
Cc1cccc(C(=O)N2CCC(=O)N([C@H](COCc3ccc(Cl)cc3)Cc3ccccc3)CC2)c1,i,/,/,2.0,/,-31,-38,-6.2,/
COc1ccc(-n2ncc3c2CC(C)(C)CC3NC(=O)c2ccnn2C)cc1 (stereo not drawn),i,0.71,-19,-3.3,0.3,-4,-3,2.9,-6
O=[N+]([O-])c1ccc(-c2ccn[nH]2)o1,i,0.062*,-18,-2.9,9.5,-57,-79,-16,1
C=CCN(N=Nc1cccc([N+](=O)[O-])c1)c1cccc([N+](=O)[O-])c1,i,0.68,-2,14,8.3,47,8,-3.3,-2
CC(=O)Nc1ccc(Nc2ccc3c4c(cc(=O)n3C)-c3ccccc3C(=O)c24)cc1,i,0.73,-13,-22,2.1,-1,3,0.1,-8
N#Cc1sc(NCc2cccc(Cl)c2)nc1Cl,i,0.54,-1,2.6,3.7,-69,-79,-19,4
COc1ccc(N(CCCN2C(=O)c3cccc4cccc(c34)C2=O)C(=O)c2cccnc2)cc1,i,0.71,-15,0.2,0.7,-21,-31,1.0,10

# Pulled by structure from above, 2 records:
SMILES,FGF22 binding,Ecoli growth,ALR inh,HNF4A DNA FP,UCH37 inh,rRNA inh HTS,rRNA inh HTS OD600,rRNA inh HTS RFP,Beta2AR agonist
O=[N+]([O-])c1ccc(-c2ccn[nH]2)o1,i,0.062*,-18,-2.9,9.5,-57,-79,-16,1
Cc1nnc(SCC(=O)Nc2nnc(SCc3cccc(Br)c3)s2)s1,/,0.63,-7,0.7,4.1,/,/,/,-5

# (listing goes on)
SMILES,FGF22 binding,Ecoli growth,ALR inh,HNF4A DNA FP,UCH37 inh,rRNA inh HTS,rRNA inh HTS OD600,rRNA inh HTS RFP,Beta2AR agonist
C=CCn1c(=O)c2c(nc3n2CC(C)CN3CCc2ccccc2)n(C)c1=O (stereo not drawn),i,0.69,14,7.7,5.6,-8,-10,-0.8,13
CC(C)C(N)c1csc(NC(=O)Nc2cccc(Cl)c2)n1 (stereo not drawn),i,/,/,0.7,/,-63,-81,-18,/
CC(C)Oc1ccc(C(CCN)C2CCCCC2)cc1 (stereo not drawn),i,/,-2,-1.1,/,-54,-80,-19,27
CSCCn1c(C(C)(C)C)cc(C(=O)O)c1C,i,0.72,-4,-4.8,3.0,6,1,-2.0,5
O=C(CSc1n[nH]c(=O)[nH]c1=O)c1cccc([N+](=O)[O-])c1,i,0.7,?,0.7,1.7,6,-2,-4.5,-9
COc1ccc(C(=O)CCS(=O)(=O)c2ccc(F)cc2)cc1OC,i,/,40,-1.8,/,14,8,-1.4,6
C=CCn1c(SCC(=O)C(C)(C)C)nnc1-c1ccccn1,/,0.75,12,-0.5,3.6,-3,-4,2.5,-7
CCOc1ncccc1C(=O)OCC(=O)N1CCc2ccccc21,i,0.67,2,0.7,1.7,-9,-9,-0.2,3
Nc1ncnc2c1cnn2C1CC(O)C(CO)O1 (stereo not drawn),i,0.72,/,0.9,1.2,7,12,-0.8,-2
COCCn1c(SCC(=O)Nc2ccccc2F)nc2c([nH]c3ccccc32)c1=O,i,0.74,-4,-0.1,-3.5,8,6,1.9,-1
COc1ccc(-c2csc(NC(=O)CSCC(=O)Nc3cc(C)on3)n2)cc1,i,0.64,47,4.3,1.9,1,12,6.1,7
COc1ccc(-c2c([C@H]3[C@H]4C=CC[C@@H](C)[C@@H]4C(=O)N3Cc3ccccc3)ccc3ccccc23)cc1OC,i,/,/,2.7,-0.1,21,24,-1.2,14
CC(=O)c1cccc(NC(=O)c2oc(C)nc2C)c1,/,0.74,-7,1.5,0.8,/,/,/,-4
CN(C)C(=O)NC1CCCCCCCCCCC1,/,0.65,-7,0.0,-2.0,/,/,/,3
Cn1cc(CN2CCCC(CNC(=O)c3ccc4c(c3)OCO4)C2)c2ccccc21 (stereo not drawn),i,0.66,-3,0.8,1.3,11,3,-5.4,6
CCOc1ccc(CN2C(=O)c3ccccc3C2C(=O)NCC2CCCO2)cc1 (stereo not drawn),i,0.69,-4,-3.1,4.4,4,0,0.7,-6
Cc1ccc(OCC(=O)Sc2ccc(C)cc2)cc1,/,0.8,100*,-2.8,9.7,/,/,/,7
CCOC(=O)/C(C#N)=C1/C=CN(C)C(C)=N1,/,0.7,-2,-5.1,21*,/,/,/,4
COc1ccc(C(=O)CC(=O)C(=O)Nc2c(C)cccc2C)cc1,i,0.67,-1,4.3,11,-42,-66,-11,10
CN1CCN(CC(=O)Nc2c(C#N)cnn2-c2ccccc2)CC1,i,0.71,1,1.6,1.5,29,22,2.1,-7
O=C1N(Cc2cccc(Cl)c2)C[C@@H]2C[C@@H](c3ccsc3)N3CCC[C@@]123,i,0.72,-7,4.1,0.7,-2,-14,4.7,7
Cc1ccc2nc(Cl)c(/C=C/C(=O)c3ccco3)cc2c1,i,0.69,97*,-0.9,6.2,-4,-2,0.7,8
O=C(Nc1ccnn1C1CCN(Cc2cc(Cl)ccc2O)CC1)C1CC1,/,0.66,9,-2.1,0.2,-28,-38,-8.7,7
COc1ccc(OCCC(=O)OCC(=O)c2ccc[nH]2)cc1,i,0.66,-13,-0.5,0.3,2,6,-7.0,0
CCCOc1ccc(C(NC(=O)CC(C)C)NC(=O)CC(C)C)cc1OC,/,0.69,/,0.1,6.5,/,/,/,3
O=C(C[n+]1cc(Br)cc(Br)c1)c1ccccc1,i,0.71,-8,2.6,1.4,4,-2,3.8,1
COCc1cc(C)nc(NCCO)c1C#N,/,0.69,-25,-1.2,-30,/,/,/,2
CCOc1cccc(C2/C(=C(/O)c3ccc4c(c3)CC(C)O4)C(=O)C(=O)N2CCCn2ccnc2)c1 (stereo not drawn),i,0.67,4,-2.2,3.4,-2,10,0.6,-2
CCC[C@@H](CN1CCC[C@H]1CN1C(N)=NC[C@H]1CC(C)C)N1C[C@@H](Cc2ccccc2)N(CCCC2CCCC2)C1=N,i,0.27*,/,2.8,2.8,/,/,/,-3
Cc1ccc(-c2csc3ncnc(SCC(=O)NCc4ccc5c(c4)OCO5)c23)cc1,/,0.74,-2,3.5,2.8,/,/,/,-4
CC(C)Cn1c(N)c(C(=O)COC(=O)c2cc(-c3ccco3)nc3ccccc23)c(=O)n(C)c1=O,i,/,5,0.5,-16,3,14,11,12
COc1cccc(C(=O)C(CCC#N)c2ccccc2)c1 (stereo not drawn),i,/,/,1.6,/,-6,-35,-15,/
CCOc1ccc2oc(C(=O)Nc3nccs3)c(C)c2c1,i,0.7,-3,4.1,-70,2,7,-1.3,-3
COc1ccc(Cl)cc1NS(=O)(=O)c1c(C)nc2sccn2c1=O,i,0.75,2,-1.0,6.5,8,12,8.6,-11
CNS(=O)(=O)c1cn(CC(=O)N(C)Cc2ccccc2)cc1S(=O)(=O)NC,i,0.69,8,0.8,-0.4,6,12,-2.2,-2
Cc1ccccc1Cn1nc(C)c(NC(=O)c2ccccc2)c1C,/,0.67,/,-4.3,0.6,4,7,-2.3,12
CN1CCC(=NNc2ccc(S(=O)(=O)N3CCOCC3)cc2[N+](=O)[O-])CC1,i,/,/,-3.5,/,6,-3,-7.3,7
CCN(C[C@H]1N[C@@](CC)(C(=O)OC)[C@H]2C(=O)N(Cc3ccccc3)C(=O)[C@@H]12)C(C)=O,i,0.68,/,-0.4,0.5,8,4,1.5,2
CC(=O)Nc1ccc(NC(=O)C2CCCN2C(=O)Nc2ccc(F)c([N+](=O)[O-])c2)cc1 (stereo not drawn),i,0.68,-12,-0.9,2.2,7,-2,-7.9,-1
O=C(COC(=O)c1cnc(Cl)c(Cl)c1)c1ccc(F)cc1,i,0.72,-3,-2.7,-1.8,-27,-40,-8.7,0

# Continued, starting with the last 4 of the part before.
SMILES,FGF22 binding,Ecoli growth,ALR inh,HNF4A DNA FP,UCH37 inh,rRNA inh HTS,rRNA inh HTS OD600,rRNA inh HTS RFP,Beta2AR agonist
CN1CCC(=NNc2ccc(S(=O)(=O)N3CCOCC3)cc2[N+](=O)[O-])CC1,i,/,/,-3.5,/,6,-3,-7.3,7
CCN(C[C@H]1N[C@@](CC)(C(=O)OC)[C@H]2C(=O)N(Cc3ccccc3)C(=O)[C@@H]12)C(C)=O,i,0.68,/,-0.4,0.5,8,4,1.5,2
CC(=O)Nc1ccc(NC(=O)C2CCCN2C(=O)Nc2ccc(F)c([N+](=O)[O-])c2)cc1 (stereo not drawn),i,0.68,-12,-0.9,2.2,7,-2,-7.9,-1
O=C(COC(=O)c1cnc(Cl)c(Cl)c1)c1ccc(F)cc1,i,0.72,-3,-2.7,-1.8,-27,-40,-8.7,0
COC(=O)[C@]1(C)CCC[C@@]2(C)C3CC[C@]4(OC(C)=O)C[C@@]3(CCC21)CC4=NO (stereo partly drawn),i,0.7,-3,-2.1,1.7,-3,-1,-3.8,19
CS(=O)(=O)c1ccc(C(=O)N(Cc2ccccc2)c2ccccc2)cc1,i,0.66,-1,-2.3,1.8,-22,-49,12,10
CCN(CC)C(=O)c1cccc(-c2csc(C(O)c3ccc(F)c(F)c3)n2)c1 (stereo not drawn),i,/,/,2.0,/,-52,-70,0.5,/
COC(=O)Cn1cc(C(=O)C(F)(F)F)c2ccccc21,i,0.7,-21,1.7,2.5,5,-4,-0.7,1
COc1ccccc1OCC(=O)Nc1ccc(S(=O)(=O)Nc2cc(C)nc(C)n2)cc1,/,0.76,-4,4.7,0.8,/,/,/,-6
COc1ccc(-n2cc(-c3ccc(Cl)cc3)[nH]c2=S)cc1,i,0.69,-1,-3.5,0.4,13,6,1.0,1
CC(C)c1nnc2c(N(C)S(=O)(=O)c3ccccc3)nc3ccccc3n12,i,0.67,-4,1.2,0.0,8,-2,1.0,-6
CCC(C)[C@H](N)c1cn([C@@H](Cc2ccc(O)cc2)C(=O)N2CCNCC2)nn1 (stereo partly drawn),i,/,4,-5.9,0.6,2,12,0.4,-8
COc1ccc(OC)c(/C=N/N=C(\N)c2nonc2N)c1,i,/,/,-0.9,/,0,9,4.2,15
O=C(C1COc2ccccc2O1)N1CCN(c2ccccc2O)CC1 (stereo not drawn),i,0.66,72,-2.5,1.7,-5,-3,2.6,-2
Cc1cc(C(=O)N/N=C/c2c(C)n(C)c3ccccc23)n[nH]1,/,/,11,0.8,/,0,0,-1.9,4
CCC(CC)C(=O)N(C)c1c(C)nc2c(OCC(=O)C(C)(C)C)cccn12,i,/,/,-1.6,/,12,26,0.3,/
Cc1nc(NS(=O)(=O)c2ccccc2)sc1C(C)(C)C,/,0.66,34,-4.7,6.3,/,/,/,0
NC(=O)CC(NC(=O)c1cccc(Br)c1)c1ccc(N2CCC(N3CCCC3)CC2)c([N+](=O)[O-])c1 (stereo not drawn),i,0.64,2,3.0,1.6,1,8,7.1,-3
CCOC(=O)[C@]12CCC=C1N(Cc1ccccc1)C(=O)[C@H](CC(=O)NCc1cccc(C(F)(F)F)c1)C2,i,/,/,-2.0,/,-1,-6,5.8,/

# These rows are one share of the data; the hit share may differ from the screen's.
